FGF22 binding: shifts melting point of recombinant human FGF22 | recombinant FGF22 thermal shift, SYPRO orange fluorescence; percent of sucrose octasulfate shift, DMSO zero | Q9HCT0 | AID 651658 | 340,000 compounds, 1.5% hits | calls only at 9.99 µM;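 active = melting point raised past a set limit in the mean and every replicate; three in four hits are not shown here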
Target sequence (Q9HCT0 whole entry, looked up): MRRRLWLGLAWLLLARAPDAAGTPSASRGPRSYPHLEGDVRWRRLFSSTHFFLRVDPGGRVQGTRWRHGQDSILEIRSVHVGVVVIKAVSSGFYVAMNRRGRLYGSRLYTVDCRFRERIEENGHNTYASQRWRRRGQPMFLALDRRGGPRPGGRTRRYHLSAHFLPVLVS
ALR inh: blocks human ALR sulfhydryl oxidase activity; P55789; purified ALR, DTT oxidation, H2O2 HRP-luminol luminescence; inhibition, % (concentration not given with the values); 290,000 compounds, 3.8% hits;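 active = mean and each replicate at 75% or more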;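 also: stock transfer was 7.5 nL into about 7.5 µL; 0% = neutral wells and 100% = wells with inactivated enzyme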
UCH37 DUB inh: blocks the human deubiquitinase UCH37. 330,000 compounds, 0.33% hits. inhibition, % (concentration not given with the values). AID 588478. Q9Y5K5. purified proteasome/UCH37, Ub-AMC cleavage fluorescence;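 active = mean of two replicates above 20%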;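 also: 0% = compound-free wells with enzyme and 100% = wells lacking proteasome; stock transfer was 100 nL into about 20 µL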
Target sequence (Q9Y5K5 whole entry, looked up): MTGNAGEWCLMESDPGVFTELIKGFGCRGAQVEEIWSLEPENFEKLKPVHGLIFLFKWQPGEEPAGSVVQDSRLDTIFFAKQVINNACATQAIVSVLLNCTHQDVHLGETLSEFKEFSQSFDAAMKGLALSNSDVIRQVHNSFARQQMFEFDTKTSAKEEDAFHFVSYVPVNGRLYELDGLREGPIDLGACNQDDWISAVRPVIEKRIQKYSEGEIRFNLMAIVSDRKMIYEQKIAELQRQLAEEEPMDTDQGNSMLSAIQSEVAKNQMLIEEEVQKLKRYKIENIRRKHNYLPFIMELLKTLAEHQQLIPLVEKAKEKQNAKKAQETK
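Test system – human UCH37 enzyme supplied as purified proteasome complex · Incubation – 30 min preincubation with enzyme, 25 min cleavage at room temperature · Detection – AMC fluorescence from Ub-AMC cleavage, excitation 355 nm, emission 460 nm · Benchmarks – no-proteasome wells (full inhibition) and compound-free wells (no inhibition)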
HNF4A DNA FP: change in binding of human HNF4 alpha to DNA. P41235. HNF4a-FITC DNA binding, fluorescence polarization, 1 h. activity change, % at 10 µM. 360,000 compounds, 0.3% hits. AID 1224865; in the data active = activity change above about 30%, passing the limit was not always enough;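 also: controls were the assay level and a saturating level of protein; the project sought stronger binding though the title names inhibitors; some compounds called inactive have numbers as strong as hits; positive values seem to mean higher polarization but the record does not say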
Target sequence (P41235 whole entry, looked up): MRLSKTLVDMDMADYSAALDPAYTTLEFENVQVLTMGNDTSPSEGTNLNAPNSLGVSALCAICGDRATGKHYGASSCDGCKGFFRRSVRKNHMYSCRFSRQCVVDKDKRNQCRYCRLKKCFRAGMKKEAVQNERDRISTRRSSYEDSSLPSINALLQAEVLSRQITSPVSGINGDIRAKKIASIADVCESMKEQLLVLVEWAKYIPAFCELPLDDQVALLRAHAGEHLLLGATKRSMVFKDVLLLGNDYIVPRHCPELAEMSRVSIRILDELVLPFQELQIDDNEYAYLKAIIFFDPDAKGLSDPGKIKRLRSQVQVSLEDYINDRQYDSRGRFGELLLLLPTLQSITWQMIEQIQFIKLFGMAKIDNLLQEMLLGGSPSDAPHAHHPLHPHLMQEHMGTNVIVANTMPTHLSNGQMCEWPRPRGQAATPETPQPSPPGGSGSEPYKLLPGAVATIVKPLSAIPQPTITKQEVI
E coli growth: E. coli growth inhibition; 330,000 compounds, 0.21% hits; AID 1053175; OD600 absorbance (test concentration not listed); Escherichia coli growth, OD600, 23 h; active compounds read low;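 active = OD600 absorbance below the run mean of sample wells minus 3.6 SD, in any replicate, cut at about 0.56 in these data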;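 also: stock transfer was 300 nL into about 60 µL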
Ecoli rRNA inh: inhibitors of bacterial rRNA selective over humanized ribosomes. E. coli WT GFP vs humanized-ribosome RFP mutants, fluorescence, 24 h; active compounds read low; DMSO median 0, no signal -100. GFP signal change (wild-type ribosome), % (no concentration beside the values). 350,000 compounds, 1.6% hits. AID 720706;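 active = significant combined selectivity score with lowered wild-type GFP, culture density cut under 30%, mutant RFP and density less affected; inactive = any of these conditions unmet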; also: one replicate is shown; some compounds called inactive have numbers as strong as hits
B2AR ag: activates human beta-2 adrenergic receptor causing internalization. P07550. Am2.2-beta2AR cells, FAP receptor internalization, flow cytometry; reference of the scale not given here. response, % (concentration not given with the values). 340,000 compounds, 0.43% hits. AID 504454;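 active = response above a set limit, near 3 SD of response in nonfluorescent compounds, cut at about 42% in these data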;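 also: stock transfer was 100 nL into about 11 µL; a reference agonist was the positive control; negative values mostly stem from fluorescent compounds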
Ecoli rRNA inh OD600: also measured in Ecoli rRNA inh; calls as there; OD600 change, %; measured here: OD600 growth;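 optical density of the mix in the first replicate; 0 = DMSO median and -100 = no signal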
Ecoli rRNA inh RFP: further read-out of Ecoli rRNA inh, marked with its call; RFP signal change, %; measured here: RFP humanized mutant strains;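 first replicate; 0 = DMSO median and -100 = no signal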
An asterisk follows results filed as active; i = inactive; . = no result given.

#	SMILES	FGF22 binding	ALR inh	UCH37 DUB inh	HNF4A DNA FP	E coli growth
1	CO[C@H]1C=C2CCN(C)[C@H]2C2c3cc4c(cc3C(=O)O[C@@H]21)OCO4 (some centres undefined)	i	-5	1.1	2.7	.
2	CSc1ncc(CN2CCCC(C(=O)c3ccccc3SC)C2)cn1 (centres undefined)	i	4	3.7	0.9	0.69
3	Cc1ccc(-c2cc(-c3ccccc3)cc(-c3ccccc3)[n+]2-c2ccc(C(=O)O)cc2)cc1	i	-2	-10	-1.0	0.71
4	O=C(COC(=O)Cc1ccccc1)Nc1ncc(Cl)cc1Cl	.	-1	2.2	-6.4	0.7
5	C[C@]12CCC3C(CC[C@H]4C[C@H](O)CC[C@]34C)C1C[C@H](O)[C@H]2O (some centres undefined)	i	.	-0.4	0.3	0.7
6	CCOC(=O)CNC(=O)N1Cc2cc(N3CCOCC3)ccc2-n2nncc2C1	i	.	.	-2.0	.
7	CCCCn1c(O)c(C(CC)=NCc2ccc(F)cc2)c(=O)[nH]c1=O	.	-4	4.3	1.4	0.71
8	CCOC(=O)C(O)(c1ccc(NC(=O)c2ccc(Cl)c(Cl)c2)cc1)C(F)(F)F (centres undefined)	i	4	4.4	2.2	0.65

#	Ecoli rRNA inh	Ecoli rRNA inh OD600	Ecoli rRNA inh RFP	B2AR ag
1	.	.	.	-5
2	-6	-3	-3.5	-12
3	8	15	1.1	-17
4	.	.	.	1
5	2	7	1.8	-4
6	10	16	1.9	.
7	.	.	.	1
8	.	.	.	15

Continuation:
#	SMILES	FGF22 binding	ALR inh	UCH37 DUB inh	HNF4A DNA FP	E coli growth
9	COc1ccc(O)c(CN2CCCC(C(=O)c3sccc3C)C2)c1 (centres undefined)	i	36	2.5	-0.1	0.67
10	CC(C)(C)n1nnnc1C(c1ccnc2ccccc12)N1CCC2(CC1)C(=O)NCN2c1ccccc1 (centres undefined)	i	.	.	-1.8	.
11	O=C(c1cccc(C(F)(F)F)c1)C1CCCN(Cc2ncc[nH]2)C1 (centres undefined)	i	-9	1.2	-1.2	0.67
12	COc1ccc(CC2C(=O)N(C)C(=O)N(C)C2=O)c(OC)c1	.	-10	.	-1.1	.
13	CSCCC(N=Cc1c(O)n(-c2ccc(F)cc2)c(=O)[nH]c1=O)C(=O)OC(C)(C)C (centres undefined)	.	.	1.8	-1.6	0.64
14	CCCCNS(=O)(=O)c1ccc(OCC(=O)N2CCN(Cc3ccc4c(c3)OCO4)CC2)cc1	i	1	1.6	0.5	0.66
15	CS(=O)(=O)c1ccc(Cl)c(NC(=O)Cc2c(Cl)cccc2Cl)c1	i	-1	-0.7	5.5	0.73
16	CNCCCc1ccccc1	.	.	-0.4	-1.4	0.68

#	Ecoli rRNA inh	Ecoli rRNA inh OD600	Ecoli rRNA inh RFP	B2AR ag
9	-1	-8	-6.3	1
10	10	1	0.4	.
11	5	4	-0.1	-5
12	.	.	.	0
13	.	.	.	-12
14	-3	-14	-0.4	5
15	1	4	0.2	-4
16	.	.	.	5

Further compounds:
#	SMILES	FGF22 binding	ALR inh	UCH37 DUB inh	HNF4A DNA FP	E coli growth
17	COc1ccc(-n2nnnc2C(c2ccnc3ccccc23)N2CCC(n3c(=O)[nH]c4ccccc43)CC2)cc1 (centres undefined)	i	.	.	3.4	.
18	COc1cc([C@@H]2c3cc4c(cc3[C@@H](OC)[C@H]3COC(=O)[C@H]23)OCO4)cc(OC)c1O	i	.	1.2	1.2	.
19	COc1ccc2c(c1OC)C(=O)O[C@H]2[C@@H]1c2cc3c(cc2CCN1C)OCO3	i	-12	0.5	4.2	.
20	Cc1nn(CC(C)C)c(Cl)c1C(=O)NC1CCCCC1	i	.	1.6	2.8	0.71
21	O=C1NC(=O)C2(CCN(c3ccccc3)CC2)C(=O)N1	i	.	.	0.4	.
22	CN1OC[C@@H]2CN[C@H](c3ccccc3Br)C[C@@H]21	i	.	.	0.5	.
23	Cc1cc(/C=C2/C(=O)NC(=O)N(Cc3ccco3)C2=O)c(C)n1-c1ccccc1	.	92*	-0.1	-3.8	0.69
24	O=C(COc1ccc(Cl)cc1)N1CCN(Cc2ccccc2)CC1	i	.	5.0	-0.6	0.7

#	Ecoli rRNA inh	Ecoli rRNA inh OD600	Ecoli rRNA inh RFP	B2AR ag
17	2	-11	6.4	.
18	-16	7	19	-5
19	.	.	.	-5
20	1	-2	1.8	3
21	8	8	1.2	-5
22	18	13	1.8	-5
23	.	.	.	2
24	-7	0	-7.8	-3

Continued:
#	SMILES	FGF22 binding	ALR inh	UCH37 DUB inh	HNF4A DNA FP	E coli growth
25	CCCCn1c(N)c(C(=O)OCCOC)c2nc3ccccc3nc21	i	-42	-395	-3.5	0.62
26	COC(=O)C1=C(c2ccccc2OCc2ccccc2)C[C@@H]2CC[C@H]1N2C(=O)NCCN1CCOCC1	i	2	1.9	-2.3	.
27	O=C(O)C(O)(c1ccccc1)C1CCCCC1 (centres undefined)	i	3	1.2	-1.2	0.69
28	COc1ccc(/C=C2/C(=O)NC(=O)N(c3ccc(C)c(C)c3)C2=O)cc1CN1C(=O)c2ccccc2C1=O	.	18	1.8	-3.0	0.69
29	Cn1cc(Br)c(C(=O)Nc2ccc3c(C(F)(F)F)cc(=O)oc3c2)n1	i	-8	i	0.6	0.73
30	CCOc1cccc(=NC2CCCCC2)c2c(C)n(C)c(C)c12	i	-6	12	6.2	0.62
31	COC(=O)C(C)Oc1cc(C)cc2oc(=O)c3c(c12)CCC3 (centres undefined)	.	-4	-26	-0.2	0.71
32	N#CC1(c2ccccc2)CCN(C2CC(=O)N(c3ccc(F)cc3)C2=O)CC1 (centres undefined)	.	6	-0.7	1.9	0.68

#	Ecoli rRNA inh	Ecoli rRNA inh OD600	Ecoli rRNA inh RFP	B2AR ag
25	2	-9	1.8	3
26	0	5	-0.7	4
27	13	13	-0.8	2
28	.	.	.	-3
29	11	3	1.8	-34
30	-9	-8	13	14
31	.	.	.	2
32	.	.	.	6

(list continues)
#	SMILES	FGF22 binding	ALR inh	UCH37 DUB inh	HNF4A DNA FP	E coli growth
33	Cc1cccc(NC(=O)N2CC3CC(C2)c2cccc(=O)n2C3)c1 (centres undefined)	i	0	-1.2	-0.2	0.71
34	Cc1cccc(N2C(=O)CC(=O)NC2=O)c1	.	11	-0.9	-0.4	0.71
35	O=c1c2ccccc2nc(Cc2cccc([N+](=O)[O-])c2)n1-c1ccc(O)cc1	i	-1	4.3	-3.5	0.67
36	CCCN(CCC)C1CCc2ccc(O)cc2C1 (centres undefined)	i	13	3.8	3.5	0.7
37	C=CCn1c(O)c(C(CC)=NCCC2=CCCCC2)c(=O)[nH]c1=O	.	-2	7.4	3.2	0.7
38	CCn1cc(C=C2C(=O)N(C)C(=O)N(C)C2=O)c2ccccc21	i	3	-2.2	5.7	0.68
39	Cn1c(N)c(C(=O)COC(=O)Cc2ccccc2)c(=O)n(C)c1=O	i	-1	0.2	-1.9	0.65
40	Cn1cc(C(=O)OCC(=O)Nc2ccccc2)c2ccccc21	i	2	1.5	-3.1	0.69

#	Ecoli rRNA inh	Ecoli rRNA inh OD600	Ecoli rRNA inh RFP	B2AR ag
33	10	10	0.5	7
34	.	.	.	6
35	-6	-10	1.4	-29
36	.	.	.	6
37	.	.	.	4
38	1	7	-1.7	2
39	-1	10	-2.3	-1
40	-6	-14	-2.9	1

(listing goes on)
#	SMILES	FGF22 binding	ALR inh	UCH37 DUB inh	HNF4A DNA FP	E coli growth
41	CNCC(O)c1cc(F)c(OCc2ccccc2)c(OCc2ccccc2)c1F (centres undefined)	i	-17	1.8	2.8	0.64
42	CN1CCN(c2nc3ccccc3o2)CC1	i	0	2.5	-2.5	0.68
43	NP(=O)(Nc1ccccc1)Nc1ccccc1	i	.	2.5	-0.6	0.67
44	O=c1[nH]c(=O)n(Cc2ccc(F)cc2)c(O)c1C=NCCN1CCCCC1	.	2	4.8	2.4	0.72
45	COc1cc2c(c(OC)c1OC)-c1ccc(O)c(=O)cc1[C@@H](NC(C)=O)CC2	i	18	1.4	-3.2	.
46	Cc1cc(O)c2c(c1)C(=O)C13C(=C2O)C(=O)[C@H]2[C@@H](O)[C@@H]1[C@H]1[C@H](O)[C@@H]3C(=O)C3=C(O)c4c(O)cc(C)cc4C(=O)C312 (some centres undefined)	.	.	28*	-5.2	0.067*
47	Nc1ncnc2c1ccn2[C@@H]1O[C@H](CO)[C@@H](O)[C@H]1O	i	-37	3.3	-2.4	0.7
48	CC(C)(C)[C@]1(O)C[C@@H]2OC(=O)C[C@@]23C(=O)O[C@@H]2OC(=O)[C@H](O)[C@]213	i	-2	3.1	-3.3	.

#	Ecoli rRNA inh	Ecoli rRNA inh OD600	Ecoli rRNA inh RFP	B2AR ag
41	-52	-79	-17	41
42	17	9	-2.6	3
43	14	13	2.0	2
44	.	.	.	-2
45	-34	-11	-22	-3
46	.	.	.	-2
47	.	.	.	7
48	14	7	1.1	3

Single records, as listed above. Order of values: FGF22 binding, ALR inh, UCH37 DUB inh, HNF4A DNA FP, E coli growth, Ecoli rRNA inh, Ecoli rRNA inh OD600, Ecoli rRNA inh RFP, B2AR ag
COc1cc2c(c(OC)c1OC)-c1ccc(O)c(=O)cc1[C@@H](NC(C)=O)CC2 across the screens: i, 18, 1.4, -3.2, ., -34, -11, -22, -3
CSCCC(N=Cc1c(O)n(-c2ccc(F)cc2)c(=O)[nH]c1=O)C(=O)OC(C)(C)C (centres undefined) across the screens: ., ., 1.8, -1.6, 0.64, ., ., ., -12

The list goes on:
#	SMILES	FGF22 binding	ALR inh	UCH37 DUB inh	HNF4A DNA FP	E coli growth
49	Cc1ccccc1-n1c(O)c(/C=N/NC(=O)c2ccncc2)c(=O)[nH]c1=O	i	.	-19	-2.7	0.69
50	Cc1ccc(OCC(=O)N2CCCC(N3CCN(c4ccc(F)cc4)CC3)C2)cc1 (centres undefined)	i	36	1.6	0.2	0.7
51	CCOC(=O)C1=C(NC(=S)NC(=O)c2ccccc2)c2ccccc2CC12CCCC2	i	.	2.5	-0.7	0.73
52	CCCNC(=O)N1[C@H]2CC[C@@H]1C(C(=O)OC)=C(c1cc3ccccc3s1)C2	.	-8	3.7	-1.5	.
53	CCc1ccc(N2C(=O)NC(=O)/C(=C\c3cccn3CCOc3ccc(C(C)C)cc3)C2=O)cc1	.	-14	-22	13	0.73
54	N#CC(C#N)=Cc1cccnc1	i	.	3.6	1.5	0.64
55	O=c1[nH]c(=S)[nH]c(O)c1N=Nc1ccc2c(c1)OCCO2	i	.	19	48*	0.63
56	Cc1cc(=O)oc2cc(OCC(=O)N3CCC(C(=O)O)(c4ccccc4)CC3)ccc12	i	-6	-22	3.1	0.71

#	Ecoli rRNA inh	Ecoli rRNA inh OD600	Ecoli rRNA inh RFP	B2AR ag
49	4	-1	0.1	-3
50	-4	-11	1.5	-4
51	1	-1	-0.5	18
52	.	.	.	-5
53	.	.	.	6
54	9	2	-3.9	-2
55	13	8	6.2	7
56	-17	-10	-8.8	0

Source: PubChem (several laboratories)

A portion of the library (hit frequency here may not be typical).
